Compound activity from PubChem.
KCNQ2 pot: potentiators of rat KCNQ2 potassium channel; B-score at 10 µM; 0.54% of 310,000 active; CHO-K1 KCNQ2, FluxOR thallium flux fluorescence; stronger effect = higher value; AID 2239, 2010;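 active means fluorescence ratio B-score at least 3 SD of library B-scores, with initial fluorescence B-score within 3 SD, cut at about 5.3 in these data; same plate scores as AID 2156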;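 further: B-score of peak minus minimum over baseline fluorescence ratio after K+ and Tl+ stimulus; positive B-score means potentiation of KCNQ2 with more thallium influx and brighter signal; only the inactives scoring about 0 or higher are listed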
Target sequence (O88943 whole entry, looked up): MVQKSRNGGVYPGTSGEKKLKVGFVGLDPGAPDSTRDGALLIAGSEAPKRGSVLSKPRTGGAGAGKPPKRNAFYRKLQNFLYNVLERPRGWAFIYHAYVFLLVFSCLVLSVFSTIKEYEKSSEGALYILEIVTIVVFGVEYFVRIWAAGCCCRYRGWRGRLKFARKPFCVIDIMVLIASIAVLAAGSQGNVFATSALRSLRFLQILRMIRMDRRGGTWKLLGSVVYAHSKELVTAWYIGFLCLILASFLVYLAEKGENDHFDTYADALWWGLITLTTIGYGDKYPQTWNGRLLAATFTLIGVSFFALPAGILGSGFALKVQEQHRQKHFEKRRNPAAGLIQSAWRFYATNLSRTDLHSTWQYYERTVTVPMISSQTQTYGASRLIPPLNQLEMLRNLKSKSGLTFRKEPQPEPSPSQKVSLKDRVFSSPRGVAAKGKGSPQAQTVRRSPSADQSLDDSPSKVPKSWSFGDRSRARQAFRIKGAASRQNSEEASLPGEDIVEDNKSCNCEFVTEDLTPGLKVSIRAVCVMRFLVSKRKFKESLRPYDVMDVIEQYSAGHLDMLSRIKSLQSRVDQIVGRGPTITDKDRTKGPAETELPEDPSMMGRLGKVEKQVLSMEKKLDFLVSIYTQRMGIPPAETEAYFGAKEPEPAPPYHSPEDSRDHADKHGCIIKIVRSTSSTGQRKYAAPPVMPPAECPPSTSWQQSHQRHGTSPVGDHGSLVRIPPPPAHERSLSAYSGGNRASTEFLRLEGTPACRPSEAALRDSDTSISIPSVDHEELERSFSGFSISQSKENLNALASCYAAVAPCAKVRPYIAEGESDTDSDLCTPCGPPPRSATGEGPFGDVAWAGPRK
KCNQ2 pot baseline: further read-out of KCNQ2 pot, marked with its call; B-score; compound at 10 µM; measured here: initial fluorescence intensity artifact check;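 brightness before thallium and not channel activity; 0 = typical well and far values either way flag optical interference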
Numbers without * were called inactive.

How did CC(=O)Nc1ccc(SCC(=O)Nc2oc(C)c3c(C)n[nH]c(=O)c23)cc1 do in these assays?
KCNQ2 pot: 0.73; KCNQ2 pot baseline: -0.26

How did CCc1ccc(S(=O)(=O)Nc2cc3c(cc2N2CCOCC2)n(C)c(=O)c(=O)n3C)cc1 do in these assays?
KCNQ2 pot: 1.7; KCNQ2 pot baseline: 0.17

What do the screens show for `CCCCn1c(-c2nn(C)cc2Cl)n[nH]c1=S`?
KCNQ2 pot: 0.55; KCNQ2 pot baseline: 1.9

Results for CSc1ccc(NC(=O)NCc2ccccc2)cc1 ?
KCNQ2 pot: 0.14; KCNQ2 pot baseline: 0.44

How did Cc1[nH]c2ccccc2c1SCC(=O)N1CCN(c2ccccc2)CC1 do in these assays?
KCNQ2 pot: 1.3; KCNQ2 pot baseline: 0.02

How did O=C(O)C1CCCN1S(=O)(=O)c1ccc2c(c1)CCC2 (stereo not given) do in these assays?
KCNQ2 pot: 0.49; KCNQ2 pot baseline: 0.5

How did CC(=O)c1ccc(NC(=O)C(C)Sc2nnc(C3CCCCC3)o2)cc1 (stereo not given) do in these assays?
KCNQ2 pot: 0.36; KCNQ2 pot baseline: -1.9

What do the screens show for `O=C(Nc1nc2c(F)cccc2s1)c1ccc([N+](=O)[O-])o1`?
KCNQ2 pot: 0.01; KCNQ2 pot baseline: 0.59

Results for COc1ccccc1Nc1ncccc1C(=O)O ?
KCNQ2 pot: 0.53; KCNQ2 pot baseline: 0.77

Results for CNC(=O)CSc1nc2cccnc2n1C1CCCCC1 ?
KCNQ2 pot: 0.4; KCNQ2 pot baseline: -0.93

What do the screens show for `Cc1n[nH]c(=S)n1/N=C/c1ccc(OCc2ccc(Cl)cc2)cc1`?
KCNQ2 pot: 0.51; KCNQ2 pot baseline: -1

Results for COc1ccc(-c2noc(=O)[nH]2)cc1 ?
KCNQ2 pot: 0.09; KCNQ2 pot baseline: -0.49

Results for CCN(C(=O)CSc1nncs1)c1c(N)n(Cc2ccccc2)c(=O)[nH]c1=O ?
KCNQ2 pot: 1.1; KCNQ2 pot baseline: -0.1

How did CCN(CCCNC(=O)C1CCC(=O)N1C1CCCC1)c1cccc(C)c1 (stereo not given) do in these assays?
KCNQ2 pot: 0.87; KCNQ2 pot baseline: -0.52

What do the screens show for `O=C(c1ccc2c(c1)[nH]c(=S)n1c3ccccc3nc21)N1CCN(c2ncccn2)CC1`?
KCNQ2 pot: 0.04; KCNQ2 pot baseline: 2.6

How did Nc1ccc(S(=O)(=O)N2CCCC2)cc1 do in these assays?
KCNQ2 pot: 0.17; KCNQ2 pot baseline: 0.49

Results for Cc1nn(C)c(NC(=O)c2ccc([N+](=O)[O-])cc2)c1Cl ?
KCNQ2 pot: 1.2; KCNQ2 pot baseline: -0.02

Results for Cc1cc(C)cc(C(=O)N(CCc2ccccc2)C2=CC3CCC(C2)N3C)c1 (stereo not given) ?
KCNQ2 pot: 2.5; KCNQ2 pot baseline: -2

What do the screens show for `COc1ccccc1NC(=O)COC(=O)c1ccccc1OCC(=O)Nc1ccc(SC(F)F)cc1`?
KCNQ2 pot: 0.67; KCNQ2 pot baseline: -0.77

What do the screens show for `CCOC(=O)C1=CN(CC2CCCO2)C=C(C(=O)OCC)C1c1ccccc1C(F)(F)F` (stereo not given)?
KCNQ2 pot: 1.5; KCNQ2 pot baseline: -0.51

What do the screens show for `CCOc1ccc(N2C(=O)CC(S/C(N)=N/N=C/c3cccs3)C2=O)cc1` (stereo not given)?
KCNQ2 pot: 1.9; KCNQ2 pot baseline: 0.46

How did CC(=O)c1cnc(Oc2cc(Cl)ccc2Cl)nc1C do in these assays?
KCNQ2 pot: 0.1; KCNQ2 pot baseline: 0.89

Results for CNS(=O)(=O)c1ccc(NC(=O)c2csc(C)c2)cc1 ?
KCNQ2 pot: 1.7; KCNQ2 pot baseline: -1

What do the screens show for `CC1CC(C)CN(C(=O)COC(=O)c2cc([N+](=O)[O-])ccc2N2CCOCC2)C1` (stereo not given)?
KCNQ2 pot: 2; KCNQ2 pot baseline: -1.9

Results for O=S(=O)(c1ccccc1)c1nc(Cc2ccccc2)oc1N1CCOCC1 ?
KCNQ2 pot: 0.99; KCNQ2 pot baseline: 0.13

Results for Cc1cc(C)c(NS(=O)(=O)c2ccc3c(c2)n(C)c(=O)n3C)c(C)c1 ?
KCNQ2 pot: 1.1; KCNQ2 pot baseline: 0.06

How did C#CCOCCOCCOCCNc1nc(N2CCN(C(=O)[C@H]([C@@H](C)CC)n3cc([C@@H](N)CO)nn3)CC2)nc(N2CCN(C(=O)[C@H](Cc3cc4ccccc4[nH]3)n3cc([C@@H](N)C(C)CC)nn3)CC2)n1 (stereo not given in full) do in these assays?
KCNQ2 pot: 0.11; KCNQ2 pot baseline: 0.23

What do the screens show for `CCc1ccc(C(=O)Nc2nc3ccccc3[nH]2)cc1`?
KCNQ2 pot: 0.28; KCNQ2 pot baseline: -0.3

Results for N#Cc1c(-c2ccccc2)c(C#N)c2nc3ccccc3n2c1N ?
KCNQ2 pot: 1.1; KCNQ2 pot baseline: -0.69

How did O=C(CN1C(=O)CCS(=O)(=O)c2ccccc21)Nc1cccc(Cl)c1 do in these assays?
KCNQ2 pot: 1.6; KCNQ2 pot baseline: -0.3

How did O=C(COC(=O)[C@@H]1CCCN1S(=O)(=O)c1ccc(Cl)cc1)NCC(F)(F)F do in these assays?
KCNQ2 pot: 0.75; KCNQ2 pot baseline: 2.2

What do the screens show for `Cc1oc2c(c(C)cc3oc(=O)c(CC(=O)NCCC(=O)O)c(C)c32)c1C`?
KCNQ2 pot: 0.46; KCNQ2 pot baseline: 2.4

How did COc1ccc2c(c1)CCN=C2Cc1ccc(OC)c(OC)c1 do in these assays?
KCNQ2 pot: 1.2; KCNQ2 pot baseline: -0.13

What do the screens show for `O=C(CN1C(=O)c2ccccc2S1(=O)=O)NCCSCc1ccccc1Cl`?
KCNQ2 pot: 0.01; KCNQ2 pot baseline: -0.28

What do the screens show for `COc1ccc(C2=Nc3cccc4cccc(c34)N2)cc1`?
KCNQ2 pot: 1.4; KCNQ2 pot baseline: -0.48

What do the screens show for `COC(=O)c1c(NC(=S)NC(=O)c2ccco2)sc2c1CCCC2`?
KCNQ2 pot: 0.39; KCNQ2 pot baseline: -0.72

What do the screens show for `Cc1cc(C)nc(/N=C(\N)Nc2cc([N+](=O)[O-])ccc2C)n1`?
KCNQ2 pot: 0.88; KCNQ2 pot baseline: 0.62

What do the screens show for `Cc1oc(-c2ccccc2Cl)nc1CS(=O)CC(=O)NCc1ccc2c(c1)OCO2` (stereo not given)?
KCNQ2 pot: 1.3; KCNQ2 pot baseline: 0.04

How did Cc1ccc(S(=O)(=O)CC#CCOC(=O)c2ccc([N+](=O)[O-])cc2)cc1 do in these assays?
KCNQ2 pot: 3.2; KCNQ2 pot baseline: -0.24

What do the screens show for `NC1CCN(c2cccc(Cl)n2)CC1`?
KCNQ2 pot: 0.6; KCNQ2 pot baseline: -0.69

Nothing new here: an excerpt of the list.
How did C#CCOCCOCCOCCNc1nc(N2CCN(C(=O)[C@H]([C@@H](C)CC)n3cc([C@@H](N)CO)nn3)CC2)nc(N2CCN(C(=O)[C@H](Cc3cc4ccccc4[nH]3)n3cc([C@@H](N)C(C)CC)nn3)CC2)n1 (stereo not given in full) do in these assays?
KCNQ2 pot: 0.11; KCNQ2 pot baseline: 0.23

What do the screens show for `CCc1ccc(C(=O)Nc2nc3ccccc3[nH]2)cc1`?
KCNQ2 pot: 0.28; KCNQ2 pot baseline: -0.3

Results for N#Cc1c(-c2ccccc2)c(C#N)c2nc3ccccc3n2c1N ?
KCNQ2 pot: 1.1; KCNQ2 pot baseline: -0.69

How did O=C(CN1C(=O)CCS(=O)(=O)c2ccccc21)Nc1cccc(Cl)c1 do in these assays?
KCNQ2 pot: 1.6; KCNQ2 pot baseline: -0.3

How did O=C(COC(=O)[C@@H]1CCCN1S(=O)(=O)c1ccc(Cl)cc1)NCC(F)(F)F do in these assays?
KCNQ2 pot: 0.75; KCNQ2 pot baseline: 2.2

More records.
How did COc1ccc(OCC(=O)Nc2cc(NC(=O)COc3ccc(OC)cc3)cc(C(=O)O)c2)cc1 do in these assays?
KCNQ2 pot: 0.76; KCNQ2 pot baseline: -1.3

What do the screens show for `O=C(CN1C(=O)S/C(=C\c2ccccc2Cl)C1=O)NC1C=CS(=O)(=O)C1` (stereo not given)?
KCNQ2 pot: 1.2; KCNQ2 pot baseline: 1.7

Results for Cn1c(=O)c2c(nc(N3CCCCCC3)n2CCSc2nc3ccccc3o2)n(C)c1=O ?
KCNQ2 pot: 0.39; KCNQ2 pot baseline: 0.09

What do the screens show for `O=C1NC2(CCCCC2)N=C1c1ccc(Br)cc1`?
KCNQ2 pot: 0.58; KCNQ2 pot baseline: -0.21

How did O=C(NCCc1ccc(Cl)cc1)C1CCN(S(=O)(=O)c2cccc3nonc23)CC1 do in these assays?
KCNQ2 pot: 1.2; KCNQ2 pot baseline: -0.01

What do the screens show for `CCc1ccc2[nH]c(=O)c(CN(Cc3ccco3)S(=O)(=O)c3ccc4c(c3)OCCO4)cc2c1`?
KCNQ2 pot: 0.33; KCNQ2 pot baseline: 0.13

What do the screens show for `COc1ccc(OC)c(CNC(=O)COc2cc(=O)n(C)c3ccccc23)c1`?
KCNQ2 pot: 1.4; KCNQ2 pot baseline: 0.01

Results for O=C(Nc1ccc2ncccc2c1)Nc1ccc2ncccc2c1 ?
KCNQ2 pot: 1.9; KCNQ2 pot baseline: -0.04

Results for Cc1nn(-c2ccccc2)c(N2CCCC2)c1/C=N/O ?
KCNQ2 pot: 4.7; KCNQ2 pot baseline: -0.79

Results for CC(C)c1ccc(S(=O)(=O)N2CCN(C(=O)c3cc([N+](=O)[O-])ccc3N3CCOCC3)CC2)cc1 ?
KCNQ2 pot: 1.3; KCNQ2 pot baseline: 0.86

Results for Cc1ccc(C(=O)N2CCN(c3ccc(NC(=O)c4cccs4)cc3)CC2)cc1 ?
KCNQ2 pot: 1.2; KCNQ2 pot baseline: 1.5

How did Cc1ccc(NS(=O)(=O)c2cc(OCC(N)=O)c(C)cc2Cl)cc1 do in these assays?
KCNQ2 pot: 0.02; KCNQ2 pot baseline: 2.4

Results for CCOC(=O)c1nc(C)sc1-c1ccnn1S(=O)(=O)c1ccc(C)cc1 ?
KCNQ2 pot: 0.72; KCNQ2 pot baseline: 2

How did CC(C)(C)n1ncc2c(=O)n(CC(=O)N3CCCc4ccccc43)cnc21 do in these assays?
KCNQ2 pot: 0.64; KCNQ2 pot baseline: 0.19

What do the screens show for `O=S(=O)(NCCN1CCOCC1)c1ccc(F)c(Cl)c1`?
KCNQ2 pot: 0.01; KCNQ2 pot baseline: -1.1

Results for CCN(CC(=O)Nc1ccc(S(=O)(=O)N2CCCC2)cc1)Cc1ccccc1 ?
KCNQ2 pot: 0.83; KCNQ2 pot baseline: 0.25

What do the screens show for `CC(C)CNC(=O)COC(=O)c1cc(Cl)cc(Cl)c1N`?
KCNQ2 pot: 0.84; KCNQ2 pot baseline: 0.69

Results for Clc1ccccc1CN1CCN(c2ncccn2)CC1 ?
KCNQ2 pot: 0.46; KCNQ2 pot baseline: -0.01

What do the screens show for `COC(=O)CSc1nnc(-c2ccc(S(=O)(=O)N3CCC(C)CC3)cc2)o1`?
KCNQ2 pot: 2.3; KCNQ2 pot baseline: 0.68

Results for Cc1ccc(C(C(=O)NC2CCCC2)N(Cc2cccnc2)C(=O)c2snc(C(N)=O)c2N)o1 (stereo not given) ?
KCNQ2 pot: 0.66; KCNQ2 pot baseline: -0.15

What do the screens show for `CC(=O)C1=C(O)C(=O)N(c2cccnc2)C1c1ccc([N+](=O)[O-])cc1` (stereo not given)?
KCNQ2 pot: 0.89; KCNQ2 pot baseline: 0.66

Results for Cn1c(-c2ccc(Cl)cc2)ccc(C#N)c1=O ?
KCNQ2 pot: 0.18; KCNQ2 pot baseline: 0.88

Results for N=c1n(CCO)c2ccccc2n1Cc1ccccc1Cl ?
KCNQ2 pot: 0.62; KCNQ2 pot baseline: 0.53

What do the screens show for `CSc1nsc(SCC(=O)Nc2ccccc2C(N)=O)n1`?
KCNQ2 pot: 0.21; KCNQ2 pot baseline: -0.28

Results for CCOc1ccccc1Nc1nc2ccccc2n1C(C)C ?
KCNQ2 pot: 0.7; KCNQ2 pot baseline: -0.59

Results for CCNC(=S)N1CCc2cc(OC)c(OC)cc2C1COc1ccccc1OC (stereo not given) ?
KCNQ2 pot: 0.53; KCNQ2 pot baseline: 1.4

How did CCCCN(Cc1cc2ccccc2[nH]c1=O)S(C)(=O)=O do in these assays?
KCNQ2 pot: 0.87; KCNQ2 pot baseline: 0.65

How did CN(C)c1ccc(CN(C(=O)c2ccccc2Br)C2CCS(=O)(=O)C2)cc1 (stereo not given) do in these assays?
KCNQ2 pot: 0.47; KCNQ2 pot baseline: 0.44

Results for O=C(c1ccc(Cl)cc1)N1C2C=CC(C2)C1(C(F)(F)F)C(F)(F)F (stereo not given) ?
KCNQ2 pot: 0.14; KCNQ2 pot baseline: -0.05

How did CCOC(=O)C1CCCN(C(=O)c2ccc3c(c2)NC(=O)C(N2CCOCC2)S3)C1 (stereo not given) do in these assays?
KCNQ2 pot: 1.5; KCNQ2 pot baseline: 0.91

Results for O=C(NCc1ccco1)/C(=C/c1ccco1)NC(=O)c1ccc(Br)o1 ?
KCNQ2 pot: 1.5; KCNQ2 pot baseline: 0.42

How did CCOC(=O)CNC(=O)CSc1nc2cccnc2n1Cc1ccccc1 do in these assays?
KCNQ2 pot: 0.62; KCNQ2 pot baseline: 0.07

What do the screens show for `C=CCOn1c(C)c(C(C)=O)c2c3no[n+]([O-])c3ccc21`?
KCNQ2 pot: 1.2; KCNQ2 pot baseline: 0.05

2 compounds drawn at random from those above, as already listed:
How did O=C(COC(=O)[C@@H]1CCCN1S(=O)(=O)c1ccc(Cl)cc1)NCC(F)(F)F do in these assays?
KCNQ2 pot: 0.75; KCNQ2 pot baseline: 2.2

What do the screens show for `NC1CCN(c2cccc(Cl)n2)CC1`?
KCNQ2 pot: 0.6; KCNQ2 pot baseline: -0.69

This is a subset; rates above refer to the full screens.
